Bioassay records: PubChem BioAssay, National Center for Advancing Translational Sciences (NCATS)
miR-21 FLuc: raises the signal of a miR-21 reporter; Potency, µM (highest dose often 38.3 µM), for inactives: at the top dose reporter change, positive = more light; 340,000 tested, under 10 active; HeLa miR-21 FLuc reporter, luciferase, 48 h; active = well fitted rising curve with a large enough effect; inconclusive = small, poorly fitted or top-dose-only effect; inactive = no such curve, though single readings can be large or run the other way;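 also: % of control where 0% means no effect; miR-21 action dims this reporter so a rising signal means less miR-21 action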
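HeLa cells stably expressing CMV-driven firefly luciferase with a downstream miR-21 binding sequence, endogenously expressing miR-21, were treated with titrations (up to about 40uM final) for 48 hours at 37 degree Celsius. Luciferase luminescence was read after lysis.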
The depositor's hits bear a star; ? = inconclusive. An excerpt; the hit share may differ from the screen's.

SMILES	miR-21 FLuc
CCOc1ccc(-c2oc3cc(Cl)ccc3c(=O)c2O)cc1OC	-19%
CCOC(=O)c1ccc(N2C(=O)c3[nH]nc(-c4ccc(C)cc4)c3C2c2cccc(F)c2)cc1 (stereo not drawn)	?
Cc1cc2c(cc1NS(=O)(=O)c1ccc(NC(=O)CC(C)C)cc1)n(C)c(=O)c(=O)n2C	13%
Cc1ccc(OCC(=O)Nc2ccc3nc(SCC(=O)Nc4ccc(C)cc4C)sc3c2)cc1	-4%
COc1ccc(N2CCN(Cc3cc(=O)oc4ccc(OC)cc34)CC2)cc1	16%
O=C(COc1ccccc1F)Nc1ccc2nc(SCC(=O)N3CCCC3)sc2c1	8%
CCOC(=O)N1CCN(Cc2nc3cc(NC(=O)c4ccc(OC)cc4)ccc3n2C(C)C)CC1	21%
Cc1cc(F)ccc1NC(=O)C(c1ccccc1)N1Cc2ccccc2C1=O (stereo not drawn)	-1%
CC(=O)N1CCc2c(sc3c2c(=O)n(Cc2ccccc2)c(=O)n3Cc2cc(C)ccc2C)C1	-2%
Cc1ccc(S(=O)(=O)Nc2cccc(-c3cn4cccc(C)c4n3)c2)c(C)c1	-6%
COc1ccc(-c2cc(C)no2)cc1S(=O)(=O)N1CCN(c2ccc(C(C)=O)cc2)CC1	20%
Cc1ccc(CSc2ncc(Cl)c(C(=O)Nc3nc4ccc(C)cc4s3)n2)cc1	-2%
CCOC(=O)c1c(C)[nH]c(C)c1S(=O)(=O)N1CCCC(C(=O)N2CCN(c3cccc(Cl)c3)CC2)C1 (stereo not drawn)	?
Cn1c(=O)c(=O)n(C)c2cc(N3CCCC3)c(NC(=O)c3ccc(C(C)(C)C)cc3)cc21	-1%
Cc1cccc(NC(=O)c2ccc3[nH]c(C)cc(=O)c3c2)c1	-29%
O=C(CNC(=O)c1ccccc1F)OCc1cc(=O)n2ccsc2n1	-1%
CCOC(=O)c1c(C)oc2nc(C)nc(NCC3CCN(Cc4ccc(Cl)cc4)CC3)c12	-2%
CN(C)c1ccc(C(CNS(=O)(=O)c2ccc(Cl)cc2)N2CCCC2)cc1 (stereo not drawn)	-9%
COC(=O)c1ccc(NC(=O)CC2C(=O)N(c3ccccc3)C(=O)N2Cc2ccco2)cc1 (stereo not drawn)	-8%
COc1ccc(CNC(=O)CCn2nc(C)c3c(C)n(-c4ccccc4)nc3c2=O)cc1OC	-5%

The list goes on; it opens with the five that closed the last part.
SMILES	miR-21 FLuc
O=C(CNC(=O)c1ccccc1F)OCc1cc(=O)n2ccsc2n1	-1%
CCOC(=O)c1c(C)oc2nc(C)nc(NCC3CCN(Cc4ccc(Cl)cc4)CC3)c12	-2%
CN(C)c1ccc(C(CNS(=O)(=O)c2ccc(Cl)cc2)N2CCCC2)cc1 (stereo not drawn)	-9%
COC(=O)c1ccc(NC(=O)CC2C(=O)N(c3ccccc3)C(=O)N2Cc2ccco2)cc1 (stereo not drawn)	-8%
COc1ccc(CNC(=O)CCn2nc(C)c3c(C)n(-c4ccccc4)nc3c2=O)cc1OC	-5%
COc1ccc(N(Cc2cc3cccc(C)c3[nH]c2=O)C(=O)c2cccc(Cl)c2)cc1	27%
Cc1cc(C)cc(OCCCn2c(CCNC(=O)C3CCCCC3)nc3ccccc32)c1	13%
CCc1ccc(NC(=O)CN2C(=O)CCSc3ccccc32)cc1	-1%
COc1ccc(NC(=O)c2cccc(N3CCCS3(=O)=O)c2)cc1OC	-15%
CCOC(=O)C1CCCN(C(=O)c2nn(-c3ccc(C)cc3)c(=O)c3c2c2ccccc2n3C)C1 (stereo not drawn)	-5%
Cc1ccc(-n2nc(C(=O)Nc3ccc(Br)cc3C)c(=O)n(C)c2=O)cc1	-3%
CCC1CN(C(=O)N2CCC(C(=O)NCc3cccs3)CC2)c2ccccc2O1 (stereo not drawn)	3%
COC(=O)c1sccc1S(=O)(=O)N(CC(=O)NCc1ccc(C)cc1)c1ccc(Cl)cc1	6%
Cc1ccc(CS(=O)(=O)Cc2ccc(C(=O)NCCc3ccc(Cl)cc3)o2)cc1	-4%
Cc1[nH]c(=O)[nH]c(=O)c1C1N2CC3(C(C)C)CN1CC(C(C)C)(C2)C3=O (stereo not drawn)	5%

Laid out differently: results already given.
SMILES,miR-21 FLuc
CCC1CN(C(=O)N2CCC(C(=O)NCc3cccs3)CC2)c2ccccc2O1 (stereo not drawn),3%
Cc1cc(C)cc(OCCCn2c(CCNC(=O)C3CCCCC3)nc3ccccc32)c1,13%
CCc1ccc(NC(=O)CN2C(=O)CCSc3ccccc32)cc1,-1%
COC(=O)c1sccc1S(=O)(=O)N(CC(=O)NCc1ccc(C)cc1)c1ccc(Cl)cc1,6%
COc1ccc(NC(=O)c2cccc(N3CCCS3(=O)=O)c2)cc1OC,-15%

(list continues)
SMILES	miR-21 FLuc
CCOC(=O)c1ccccc1NC(=O)CSc1cc(C)[nH]c(=O)n1	1%
COc1ccc(C(C)=O)cc1CSc1nc(NCCc2ccccc2)c2ccccc2n1	-2%
CCOc1ccc(NC(=O)Cn2nc(SC)c(S(=O)(=O)c3ccccc3)c2N)cc1	6%
Cc1nn2c(=O)cc(COC(=O)c3ccc(C(C)(C)C)cc3)nc2s1	1%
Cc1nc2nc(NC(=O)c3ccc(C(C)(C)C)cc3)[nH]n2c(=O)c1Cl	10%
Cc1cc(C)c(Cn2c(=O)n(CCCCCC(=O)NCc3ccc4c(c3)OCO4)c(=O)c3sccc32)c(C)c1	1%
COc1ccc(NC(=O)c2cc3c(=O)n(Cc4cccs4)ccc3nc2C)c(OC)c1	-2%
CCOc1ccc(NC(=O)CCc2c(C)nc3c(c(C)nn3-c3ccccc3)c2C)cc1	1%
COC(=O)c1c(C)sc(-c2c(-c3ccc4c(c3)OCCO4)[nH]c3[nH]c(=O)[nH]c(=O)c23)c1O	-1%
O=C(CN1C(=O)COc2ccc(S(=O)(=O)N3CCCC3)cc21)NCCc1ccc(Cl)cc1	9%
CCOC(=O)c1c(NC(C)=O)c2c3c(sc2n1Cc1nc(-c2ccccc2OCC)oc1C)CCCC3	-2%
Cc1ccc(OCC(=O)Nc2ccc(-c3nc4ccc(C)cc4o3)cc2)cc1	-37%
CN1CCN(C(=O)Cn2ncc3c4ccccc4n(Cc4ccc(Cl)cc4)c3c2=O)CC1	17%
CCN(CC)c1ccc(NS(=O)(=O)c2ccc(-c3cnc(C4CC4)o3)cc2)c(C)c1	15%
COc1ccc(Cn2ccnc2SCC(=O)Nc2cc(C(F)(F)F)ccc2Cl)cc1	-4%
COc1ccc(NC(=O)Cn2c(=O)n(CCCC(=O)NCCc3ccc(C)cc3)c(=O)c3ccccc32)cc1Cl	-4%
CCn1c(SCC(=O)Nc2cc(Cl)ccc2OC)nc2c([nH]c3ccccc32)c1=O	-3%
COc1ccc(NC(=O)CSC2=Nc3ccccc3C3=NC(CC(=O)NCCc4ccccc4)C(=O)N23)cc1 (stereo not drawn)	1%
CCOCCCn1c(SCC(=O)Nc2ccc(C(C)C)cc2)nc2c(sc3ccccc32)c1=O	0%
CCOC(=O)c1scc(-c2ccc(C)cc2)c1S(=O)(=O)Nc1cc(OC)ccc1OC	6%
CNC(=O)C1CCC(Cn2c(=O)c3sccc3n(CC(=O)NCc3ccccc3)c2=O)CC1 (stereo not drawn)	-3%
Cc1cc(F)ccc1NC(=O)C(C(C)C)N1Cc2ccccc2C1=O (stereo not drawn)	6%
CCOC(=O)C1=C(CN2CCN(c3ccccc3OC)CC2)NC(=O)NC1c1ccccc1 (stereo not drawn)	15%
COc1ccc(OC)c(-c2noc(N3CCN(c4ccc(Cl)cc4)CC3)n2)c1	-9%
COc1ccc(OCc2ccc(-c3nc(C#N)c(NCc4ccc(F)cc4)o3)o2)cc1	7%
O=C(COc1ccc(Br)cc1)Nc1cccc2cccnc12	-10%
COc1ccc(-n2c(CC3C(=O)N(C)c4ccc(C)cc43)nc3ccccc3c2=O)cc1 (stereo not drawn)	-1%
COC(=O)CCN(C(=O)c1c(C)oc2ncnc(N3CCOCC3)c12)c1ccccc1	-8%
COc1ccc2c(c1)c1c(c(=O)n(Cc3ccccc3)c(=O)n1CC(=O)Nc1ccc(C)cc1C)n2C	3%
CCCc1nnc(NC(=O)c2cc(=O)c3ccccc3o2)s1	-49%
Cc1noc(C)c1S(=O)(=O)N(CC(=O)NCCc1ccc(Cl)cc1)c1ccc(C(C)C)cc1	-1%
CCc1ccc(NC(=O)CSc2nc3c(sc4ccccc43)c(=O)n2CCCOC(C)C)cc1	-1%
CCOc1ccc2nc(NC(=O)c3nc(SCc4ccccc4F)ncc3Cl)sc2c1	1%
CCc1ccc(-c2nc(-c3cc4ccccc4oc3=O)sc2C)cc1	-5%
Cc1cccc(N2CCN(c3nc4ccccc4c4nnc(C)n34)CC2)c1C	5%
COc1ccccc1N1CCN(C(=O)C2CCN(S(=O)(=O)Cc3ccccc3)CC2)CC1	-22%
COc1cccc(-c2nn(C)c3sc(C(=O)NCc4cc(OC)ccc4OC)cc23)c1	10%
Cc1ccc(S(=O)(=O)Nc2cc3c(C(=O)OCc4ccccc4)c(C)oc3c3ccccc23)c(C)c1	6%
Cc1ccc(C(=O)c2oc3ccccc3c2NC(=O)c2cc(=O)c3ccccc3o2)cc1	-3%
CCOC(=O)c1ccc(NC(=O)C2=C(C)C(=O)OC23CCN(C(C)C)CC3)cc1	2%
COc1cc(C(=O)N(Cc2ccc(F)cc2)Cc2ccco2)cc(OC)c1OC	?
COc1ccc2c(c1)c(CC(=O)Nc1c(C)cccc1C)c(C)n2C(=O)c1ccc(Cl)cc1	-1%
COc1ccc(NC(=O)CSc2ncccc2C(=O)O)cc1OC	5%
CC(C)c1nn2c(=O)cc(COC(=O)c3ccccc3Cl)nc2s1	-44%
O=C(Nc1ccccc1F)c1cnc(N2CCCCC2)c2ccccc12	?
COc1c(C)cc(S(=O)(=O)Nc2cccc(-c3ccc(N4CCOCC4)nn3)c2)c(C)c1C	-14%
CCOc1ccccc1NC(=O)CCn1c(-c2ccc(OC)cc2)cc(C(C)=O)c1C	4%
Cc1nc(-c2ccc(F)cc2)sc1CCNC(=O)c1ccco1	-5%
COc1cccc(CNC(=O)CCCn2c(=O)c3cccn3c3ccc(F)cc32)c1OC	2%
CCOC(=O)c1cc(S(=O)(=O)Nc2ccc(C)cc2Cl)[nH]n1	-8%

The list goes on:
SMILES	miR-21 FLuc
Cc1ccc(NC(=O)/C=C/c2ccco2)cc1F	-18%
Cc1ccc(C)c(NC(=O)c2cc(S(=O)(=O)NCc3ccccc3)ccc2F)c1	-3%
CCOc1ccccc1CNC(=O)C1CCCN(S(=O)(=O)c2ccc3c(ccn3C)c2)C1 (stereo not drawn)	8%
COc1ccc(S(=O)(=O)NCC(c2ccco2)N2CCN(c3ccc(F)cc3)CC2)cc1C (stereo not drawn)	20%
CCc1ccc(-n2nc(CO)c(C(=O)NCCCCc3ccccc3)n2)cc1	1%
CCc1ccc(-n2c(=O)c3sc4ccccc4c3n(CC(=O)NC3CCCCC3)c2=O)cc1	-2%
Cc1ccc(-c2nc3ccccn3c2Nc2ccc3c(c2)OCCO3)s1	-62%
CCOC(=O)c1c(NC(=O)COc2ccc(Br)cc2)sc(C(C)=O)c1C	0%
Cc1c(C(=O)OCCOc2ccccc2)[nH]c2c1C(=O)CC(c1ccccc1Cl)C2 (stereo not drawn)	26%
CCc1ccc(OCCCSc2nc(-c3ccc(C(C)(C)C)cc3)nc3cc(=O)[nH]n23)cc1	-7%
CCc1ccccc1NC(=O)CSc1nc2c(oc3ccccc32)c(=O)n1C	1%
CCCCn1c(SCC(=O)NCCCOC)nc2c(sc3ccccc32)c1=O	6%
Cc1ccc2scc(N3CCN(c4cccc(C(F)(F)F)c4)CC3)c(=O)c2c1	-7%
Fc1cccc(CN2CCc3nc(Nc4ccc5c(c4)OCCO5)ncc3C2)c1F	14%
CCOC(=O)c1c(C)[nH]c(C)c1S(=O)(=O)N1CCC(C(=O)Nc2ccccc2CC)CC1	-6%
COc1ccc(CNC(=O)COCc2cc(-c3cccs3)on2)cc1OC	16%
Cc1ccc(C)c(Cn2c(CCCNC(=O)C3CCCCC3)nc3ccccc32)c1	-4%
CCN(CC)S(=O)(=O)c1ccc2oc(C(=O)N(C)Cc3ccccc3)c(C)c2c1	26%
CC(=O)Nc1nonc1-c1nnc(SCC(=O)Nc2ccc(C)c(Cl)c2)n1-c1ccccc1	3%
Cc1cc(C)c2c(-n3cccc3)c(C(=O)NCC(C)c3ccccc3)sc2n1 (stereo not drawn)	-24%
COc1cc(NC(=O)Cn2ccn(Cc3ccccc3OC)c(=O)c2=O)cc(OC)c1	-4%
CCc1cccc(NC(=O)Cn2c(=O)c(C(F)(F)F)nc3ccccc32)c1	2%
COc1cc(C(=O)Nc2ccc(-n3c(C)nc4ccccc4c3=O)cc2)cc(OC)c1OC	14%
Cc1ccc(C(=O)Nc2ccc3nc(SCC(=O)N4CCCc5ccccc54)sc3c2)cc1	8%
COc1ccc(NC(=O)C(C)n2nc(C)c3c(C)n(-c4ccccc4)nc3c2=O)cc1Cl (stereo not drawn)	-1%
CCOC(=O)c1ccc2c(c1)N(C(CC)C(=O)Nc1ccccc1OC)C(=O)c1ccccc1S2 (stereo not drawn)	12%
CCCCN1C(=O)c2[nH]nc(-c3ccccc3O)c2C1c1cc(Br)c(O)c(OC)c1 (stereo not drawn)	-1%
O=C(Nc1nnc(S(=O)(=O)N2CCCc3ccccc32)s1)c1ccc(Cl)cc1	0%
CC(CC(=O)NCc1ccc(Cl)cc1)CC1=NS(=O)(=O)c2ccccc2N1 (stereo not drawn)	7%
COc1ccc2c(c1)c(CC(=O)Nc1cc(C)cc(C)c1)c(C)n2C(=O)c1ccc(Cl)cc1	3%

Retrieved by compound from above, 2 records:
SMILES	miR-21 FLuc
CC(CC(=O)NCc1ccc(Cl)cc1)CC1=NS(=O)(=O)c2ccccc2N1 (stereo not drawn)	7%
Cc1ccc(C(=O)Nc2ccc3nc(SCC(=O)N4CCCc5ccccc54)sc3c2)cc1	8%
